HCMV NEC inh: inhibitors of HCMV UL50-UL53 nuclear egress complex interaction; HTRF UL50-UL53 interaction, normalized percent inhibition; inhibition, % (test concentration not listed); 190,000 compounds, 0.15% hits; AID 1918969;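 active means both replicates at 50% or more, plus weaker picks with an unusually low signal ratio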;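 further: stock transfer was 100 nL into about 20 µL; 0% = negative control wells and 100% = wells with untagged competitor protein; inactives centre near -12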
GIV Gai3 FP: GIV-Galpha-i interaction inhibition; percent of control (FP), % (concentration not given with the values); 210,000 compounds, 0.42% hits; Galpha-i3/FITC-GIV peptide fluorescence polarization, 90 min; stronger effect = lower value; scaled: aluminum fluoride 0%, vehicle 100%;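 active means replicate mean at 85% of control or lower, very high polarization wells dropped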;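 further: wells of about 15 µL received 100 nL stock; the first replicate is given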
Target sequence (P08753 whole entry, looked up): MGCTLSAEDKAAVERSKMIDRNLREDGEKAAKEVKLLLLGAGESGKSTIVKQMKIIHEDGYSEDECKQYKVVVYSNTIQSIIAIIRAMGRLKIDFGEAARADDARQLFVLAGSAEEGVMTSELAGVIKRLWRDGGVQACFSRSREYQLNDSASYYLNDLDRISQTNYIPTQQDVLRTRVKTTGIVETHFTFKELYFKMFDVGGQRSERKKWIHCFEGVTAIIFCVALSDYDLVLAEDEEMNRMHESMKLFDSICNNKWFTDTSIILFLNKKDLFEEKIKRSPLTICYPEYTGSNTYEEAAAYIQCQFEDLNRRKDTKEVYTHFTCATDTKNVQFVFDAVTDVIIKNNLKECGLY
Sa growth 42C: inhibitors of Staphylococcus aureus growth at 42 °C; S. aureus RN4220 growth, OD600, 20 h; stronger effect = lower value; relative growth, % (concentration not given with the values); 170,000 compounds, 0.53% hits;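 active means growth at 42 °C up to 50% and 20 or more points under that at 30 °C, or under 10% at both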;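 further: 300 nL library stock went into each well; scaled to the means of positive and negative controls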
Sa growth 42C second temp: also measured in Sa growth 42C; calls as there; relative growth, %; measured here: growth at 30 °C;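 optical density after 20 h as mean of two plates; 100% = untreated growth and lower means inhibition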
An asterisk follows results filed as active; . = not tested or not shown; & = joins results of further samples.

1	COc1cc(NC(=O)C(C)S(=O)(=O)c2ccc3c(c2)S(=O)(=O)N=CN3)cc(OC)c1 (stereo unspecified)
2	CCc1nn(CC(=O)N2CCCCC2)c(=O)c2cc3occc3n12
3	O=c1[nH]c(C(F)(F)F)nc2c1cnn2Cc1ccccc1
4	CCN=c1sc(C(=O)NCCc2ccccc2)cc(=O)n1CC
5	Cn1nc(C(=O)NCc2ccccc2)c2c1CCN(C(=O)c1cccc(F)c1)C2
6	CC(/C=N/N1CCN(c2ccccc2)CC1)=C\c1ccco1
7	CCOC(=O)c1nc2ccccc2c(=O)n1/N=C/c1cc(Cl)cc(Cl)c1O
8	COC(=O)c1sc(N(C)C)c(C#N)c1-c1ccccc1
9	C(=N\NC1=NCCCCC1)/c1ccc(N2CCOCC2)cc1
10	Cc1cc(Nc2ccc(C(C)C)cc2)nc(-n2nc(C)cc2C)n1
Assay by compound	1	2	3	4	5	6	7	8	9	10
HCMV NEC inh	-16	-13	-32	-20	-41	-8	0	-21	-59	.
GIV Gai3 FP	106	102	.	102	109	.	178	103	105	104&108
Sa growth 42C	.	101	69	86	.	93	99	88	99	22
Sa growth 42C second temp	.	91	87	67	.	93	92	84	95	11

Molecules from the list above containing fluorine:
3	O=c1[nH]c(C(F)(F)F)nc2c1cnn2Cc1ccccc1
5	Cn1nc(C(=O)NCc2ccccc2)c2c1CCN(C(=O)c1cccc(F)c1)C2
Assay by compound	3	5
HCMV NEC inh	-32	-41
GIV Gai3 FP	.	109
Sa growth 42C	69	.
Sa growth 42C second temp	87	.

Next structures.
11	CC(C)Cc1c(C#N)c(N)nc(SCC(=O)c2cc3cc(Br)ccc3oc2=O)c1C#N
12	O=S(=O)(/C=C/c1ccccc1)N1CCN(c2nc(-c3cccnc3)nc3ccccc23)CC1
13	Cc1ccc(-c2cc(C(=O)N3CCN(S(=O)(=O)c4ccc(Br)cc4)CC3)[nH]n2)cc1C
14	Cc1cccc(Cn2cccc2CNS(=O)(=O)c2cnn(C(F)F)c2C)c1
15	O=C(NCc1ccc(F)cc1)c1cc2n(n1)CCCN(Cc1ccc(F)cc1)C2=O
16	CCOc1ccccc1NC(=O)c1nn(-c2ccc(OC)cc2)c(=O)n(C)c1=O
17	Cc1cc2nc(COc3ccc(NC(=O)CCC4CCCC4)cc3)cc(=O)n2o1
18	O=C(NCCc1ccccc1)C1CCC(CNS(=O)(=O)c2ccc(Cl)cc2)CC1 (stereo unspecified)
19	O=C(NCCSc1ccc(Cl)cc1)c1ccco1
20	CCOc1ccc(NC(=O)CSc2nnc3c(C)cc4ccccc4n23)cc1
Assay by compound	11	12	13	14	15	16	17	18	19	20
HCMV NEC inh	-28	-22	.	-26	-9&19	-25	8	.	-10	9
GIV Gai3 FP	109	.	99	110	98&100	99	104	100	105	108
Sa growth 42C	.	78	89	.	112	.	.	111	113	96
Sa growth 42C second temp	.	84	81	.	86	.	.	95	98	95

21	CC(C)(C)C1CCC(OC(=O)c2cccnc2)CC1 (stereo unspecified)
22	O=C(NCCCN1CCCC1)C1CCN(c2nc3cccnc3s2)CC1
23	Cc1ccc(C)c(-n2c(Cc3cc(=O)[nH]c(=O)[nH]3)nnc2SCC(=O)Nc2nnc(C)s2)c1
24	CCOC(=O)c1ccc(S(=O)(=O)N(C)C)cc1
25	Cc1cc2ccccc2n1-c1ccc(C(=O)N2CCCCC2)s1
26	O=C(CSc1nnc(-c2ccc(F)cc2)o1)N1CCCC2CCCCC21 (stereo unspecified)
27	COc1cccc(N2CC(NC(=O)c3ccc(S(=O)(=O)N4CCCC4)cc3)CC2=O)c1 (stereo unspecified)
28	O=C(CSc1nc2ccsc2c(=O)n1CC1CCC(C(=O)O)CC1)Nc1nccs1 (stereo unspecified)
29	CC(C)P(=O)(c1c(F)c(F)nc(F)c1F)C(C)C
30	COc1ccc(CCNC(=O)c2ccc3c(c2)CCN3S(=O)(=O)c2ccc(C)cc2)cc1OC
Assay by compound	21	22	23	24	25	26	27	28	29	30
HCMV NEC inh	-13	24	-25	-4	.	-21	.	-33	22	-31
GIV Gai3 FP	.	108	102	.	116	.	94	103	96	102
Sa growth 42C	91	98	86	77	107	82	102	90	69	98
Sa growth 42C second temp	96	108	85	102	88	55	85	94	97	90

31	Cc1cc(C)c(C#N)c(SCC(=O)NCCc2c[nH]c3ccccc23)n1
32	CCC(C)(C)NS(=O)(=O)c1cc(C(=O)N2CCC(C)CC2)cs1
33	Cc1cccc(-c2noc(-c3cccnc3NC(C)c3ccccc3)n2)c1 (stereo unspecified)
34	CN(C)c1ccc(/C=C2/N=C(c3ccc(Cl)cc3)OC2=O)cc1
35	COC(=O)c1ccc(CSc2nc3c([nH]c4ccccc43)c(=O)n2C)o1
36	CSc1nsc(SC)c1C(=O)Nc1ccc(Cl)cc1
37	O=S(=O)(NCC1CCCCC1)c1ccc(-n2cnnn2)cc1
38	CCc1[nH]nc(C(=O)O)c1C
39	Cc1ccnc(SCC(=O)C(C)(C)C)n1
40	O=C(C1CC1)N1N=C2/C(=C/c3ccc4c(c3)OCO4)CCCC2C1c1ccc2c(c1)OCO2 (stereo unspecified)
Assay by compound	31	32	33	34	35	36	37	38	39	40
HCMV NEC inh	-26	-30	-26	0	-2	2	8	-12	-19	-41
GIV Gai3 FP	.	110	100	132	101	103	105	101	.	.
Sa growth 42C	100	.	.	98	87	101	99	90	94	70
Sa growth 42C second temp	83	.	.	90	94	72	96	88	84	96

Sorted by value in GIV Gai3 FP (lowest first): 3 from the list above
| no. | SMILES | GIV Gai3 FP |
| --- | --- | --- |
| 33 | Cc1cccc(-c2noc(-c3cccnc3NC(C)c3ccccc3)n2)c1 (stereo unspecified) | 100 |
| 36 | CSc1nsc(SC)c1C(=O)Nc1ccc(Cl)cc1 | 103 |
| 32 | CCC(C)(C)NS(=O)(=O)c1cc(C(=O)N2CCC(C)CC2)cs1 | 110 |

Next part:
41	O=C(CSc1n[nH]c(-c2ccccc2)n1)NCCc1ccccc1
42	O=C(Nc1cccc2ccccc12)OC1CCS(=O)(=O)C1 (stereo unspecified)
43	CC1=C(C(=O)OCCOc2ccccc2)C(c2ccc(O)cc2)C2=C(CC(c3ccccc3)CC2=O)N1 (stereo unspecified)
44	O=C(O)Cn1cc(C(=O)C2CC2)c2ccccc21
45	O=C(NCCN1C(=O)S/C(=C\c2cccnc2)C1=O)c1cc(S(=O)(=O)N2CCOCC2)ccc1F
46	CCN1CCN(c2oc(COc3ccccc3C)nc2C#N)CC1
47	CCC(=O)N1CCc2cc(S(=O)(=O)CCC(=O)N(C)c3ccc(OC)cc3)ccc21
48	CCOC(=O)c1cnn2c(C(F)F)cc(-c3ccc(C)cc3)nc12
49	O=C(Nc1nccs1)c1cc2cc(Cl)ccc2oc1=O
50	OCC(O)CN=Cc1c(O)[nH]c2ccccc12 (stereo unspecified)
Assay by compound	41	42	43	44	45	46	47	48	49	50
HCMV NEC inh	.	-34	-17	.	-62	.	-16	-61	-3	-19
GIV Gai3 FP	103	.	104	97	.	100	100	105	104	105
Sa growth 42C	80	111	.	94	100	94	104	97	93	105
Sa growth 42C second temp	84	83	.	85	96	82	90	83	88	111

51	COc1ccc(S(=O)(=O)N(C(=O)c2ccccc2C)c2ccc3oc(=O)sc3c2)cc1OC
52	CCc1ccc(C2NC(=O)NC3=C2C(=O)CCC3)cc1 (stereo unspecified)
53	CC(C(=O)Oc1ccc(C#N)cc1)N1C(=O)c2ccccc2C1=O (stereo unspecified)
54	CC(Cc1c[nH]c2ccccc12)Nc1ccc2ccccc2n1 (stereo unspecified)
55	COc1ccc2c(CNCc3cccs3)c(C(=O)O)n(Cc3ccccc3F)c2c1
56	O=C(O)CN(CC(=O)Nc1ccc2c(c1)OCCCO2)Cc1ccccc1
57	FC(F)(F)c1cc(-c2cccs2)nc2cc(-c3ccco3)nn12
58	O=c1c2ccccc2nnn1CSc1nnc(COc2ccccc2Cl)o1
59	O=C(CN1C(=O)CCSc2ccccc21)N1CCCCCC1
60	COc1cc(NC(=O)c2ccccc2)c(OC)cc1NC(=O)CN1CCCCC1
Assay by compound	51	52	53	54	55	56	57	58	59	60
HCMV NEC inh	-6	.	4	0	.	-24	3	-28	-1	-14
GIV Gai3 FP	104	102	.	100	116	110	98	.	101	101
Sa growth 42C	.	94	99	94	113	100	111	96	83	106
Sa growth 42C second temp	.	77	95	63	87	87	90	93	82	86

61	COCCNC(=O)c1ccc2c(c1)CCN2S(=O)(=O)c1ccc(C)cc1
62	CSc1nc(-c2ccccc2)nc2[nH]ccc(=O)c12
63	N#CCCn1cc(C(=O)N2CCCCC2)c(-c2ccccc2)n1
64	Cc1nc2cc(-c3ccccc3)nn2c(C)c1CCC(=O)NCc1cccc(Cl)c1
65	Cn1ccc2cc(S(=O)(=O)N3CCN(C(=O)Nc4ccc(F)cc4F)CC3)ccc21
66	Cn1c(=O)c(Cc2ccccc2Cl)nc2cc(C(=O)c3ccccc3)ccc21
67	O=c1c2ccccc2n2c(-c3ccc(Cl)cc3)nnc2n1Cc1ccccc1
68	CN1C2=C(C(=O)CCC2)C(c2ccc(O)c(Cl)c2)C2=C1CCCC2=O
69	COc1ccc(CCNC(=O)CS(=O)Cc2nc(-c3ccc(C)cc3)oc2C)cc1OC (stereo unspecified)
70	Cc1ccc(C2=NS(=O)(=O)N(C)C(C(=O)Nc3cc(C)ccc3O)=C2)cc1
Assay by compound	61	62	63	64	65	66	67	68	69	70
HCMV NEC inh	-7	-10	18	-36	-13	5	-1	-43	-29	-36
GIV Gai3 FP	110	108	.	103	98&103	105	100	95	108	100
Sa growth 42C	98	90	88	92	77	.	.	87	94	.
Sa growth 42C second temp	96	72	95	85	86	.	.	88	91	.

71	COC(=O)COc1ccc(CSc2nc3ccccc3c(=O)n2C)cc1
72	Cc1noc2ncn(CC(=O)N3CCN(c4ccc(F)cc4)CC3)c(=O)c12
73	COc1ccc(NS(=O)(=O)c2ccc3c(c2)NC(=O)CS3)c(OC)c1
74	CCCCCCN1C(=O)c2ccc(Br)cc2C1=O
75	Cc1cc(NC(=O)CSc2ccc3ccccc3c2)no1
76	CCCSc1nc2c(c(=O)[nH]1)C(c1cccc(F)c1)C(C(=O)OC)=C(C)N2 (stereo unspecified)
77	CCCCn1c(CCNC=O)nc2ccccc21
78	O=c1cc(-c2ccc3ccccc3c2)[nH][nH]1
79	Cc1ccn(C(=O)c2ccc(Br)cc2)n1
80	Cc1ccc(C(=O)OCc2cc(=O)n3oc(C)cc3n2)cc1
Assay by compound	71	72	73	74	75	76	77	78	79	80
HCMV NEC inh	0	-9	-12	-24	12	-31	-17	-38	-4	-15
GIV Gai3 FP	.	103	110	101	.	102	110	.	108	96
Sa growth 42C	93	.	.	96	80	.	115	108	134	.
Sa growth 42C second temp	93	.	.	87	87	.	101	83	75	.

In the list so far, five contain a furan ring, fused or not:
2	CCc1nn(CC(=O)N2CCCCC2)c(=O)c2cc3occc3n12
6	CC(/C=N/N1CCN(c2ccccc2)CC1)=C\c1ccco1
19	O=C(NCCSc1ccc(Cl)cc1)c1ccco1
35	COC(=O)c1ccc(CSc2nc3c([nH]c4ccccc43)c(=O)n2C)o1
57	FC(F)(F)c1cc(-c2cccs2)nc2cc(-c3ccco3)nn12
Assay by compound	2	6	19	35	57
HCMV NEC inh	-13	-8	-10	-2	3
GIV Gai3 FP	102	.	105	101	98
Sa growth 42C	101	93	113	87	111
Sa growth 42C second temp	91	93	98	94	90

Further records:
81	Cc1cc(NC(=O)Cn2cc(S(=O)(=O)N(Cc3ccccc3)Cc3ccccc3)ccc2=O)no1
82	Cc1ccc(NC(=O)C(C)Sc2nc3c(c(=O)[nH]2)CCCC3)cc1 (stereo unspecified)
83	CCOC(=O)C1CCN(Cc2c[nH]c3ccccc23)CC1
84	O=C(c1cccc2ccccc12)N1CCc2ccccc21
85	COc1cc2c(=O)n(Cc3ccc(C(=O)NC4CC4)cc3)c(=O)n(CC(=O)NCc3ccccc3)c2cc1OC
86	CCC(O)c1nc2ccccc2n1CC1CCCCC1 (stereo unspecified)
Assay by compound	81	82	83	84	85	86
HCMV NEC inh	-15	-17	-14	-19	-27	-6
GIV Gai3 FP	.	97	105	.	106	100
Sa growth 42C	75	.	93	77	.	69
Sa growth 42C second temp	87	.	87	69	.	81

Screening results from PubChem BioAssay.

Compounds as they come. Share with any hit: about 0.83%.
